# PMP22 txn = modulates PMP22 transcription in S16 Schwann cells. Potency, µM (series often up to 57.5 µM), without a hit: top-dose activity change, negative = inhibition, hits mostly inhibitors. S16 Pmp22-F2sN Schwann cells (luciferase reporters placed in the Pmp22 gene), FLuc/NLuc coincidence luminescence, 24 h. 43,000 tested, 2% active; active = clear falling dose curves in both reporters; inconclusive = both reporters move, but less clearly or upward; inactive = either reporter flat; the % is the NLuc reporter signal; note: % is set by controls: 0 for no effect and ±100 for the full control effect; some results filed as inactive show a strong effect at the top dose
#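 Schwann cells carrying the coincidence reporter were exposed to library compounds for 24 h at 37C, then lysed and read for FLuc and, after quenching, NLuc luminescence on a CCD imager.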
# HTT promoter inh = HTT promoter inhibition | HEK293 HTT promoter firefly luciferase reporter (activity 0% = vehicle and -100% = no light), 24 h | Potency, µM (titrated, usually from 57.5 µM), for the others: at the highest dose activity change, negative = inhibition, most hits filed as inhibitors | 48,000 tested, 0.93% active | AID 1508623; active = well fitted inhibition curve with a large enough effect; inconclusive = small, poorly fitted or top-dose-only effect; inactive = no such curve, though single readings can be large or run the other way; note: nearly all actives have a fitted effect of over 50% in size
#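 HEK293 luciferase promoter-reporter cells (2,500/well) plated 24 h, then compounds added at up to 57.5 uM final for 24 h at 37 °C. Firefly luminescence by Dual-Glo, normalized to vehicle (0%) and zero RLU (-100%).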
# Active calls of the source: *; u = inconclusive; x = not tested or not shown. Potency is the fitted concentration of half-maximal effect. This is a subset; rates above refer to the full screens.
smiles | PMP22 txn | HTT promoter inh
CC(=O)c1cccc(NC(=O)CCS(=O)(=O)c2cc3c(cc2C)NC(=O)CO3)c1 | -2.6% | -4.8%
CC(=O)c1cccc(NC(=O)C2CCN(S(=O)(=O)c3ccc4[nH]c(=O)ccc4c3)CC2)c1 | -15.1% | -2.6%
O=S(=O)(c1ccccc1)c1nc(-c2ccc(Cl)cc2Cl)oc1N1CCCCC1 | -4.8% | -9.3%
Cn1nc(C(=O)NCc2cccc(Cl)c2)c2c1-c1ccccc1SC2 | -21.5% | -9.7%
CC(C)CC(=O)NCc1nc2cccnc2n1Cc1ccccc1 | 20.8% | -2.2%
O=C1NC(=O)[C@@H](c2cn3c4c(cccc24)CCC3)[C@H]1c1c[nH]c2ccccc12 | x | u
COC(=O)C1=C(C)NC(C)=C(C(=O)OC(C)(C)CN(C)CCC(c2ccccc2)c2ccccc2)C1c1cccc([N+](=O)[O-])c1 (configuration not stated) | x | -24.4%
CCCCOc1ccc(C(=O)Nc2ccc3c(c2)CCCN3S(=O)(=O)c2ccc(C)cc2)cc1 | -7.8% | u
CCCCC(=O)OC1=CN(Cc2ccccc2)S(=O)(=O)c2ccccc21 | u | -8.0%
Cc1ccc(NC(=O)Cn2c(=O)n(Cc3ccco3)c(=O)c3ccc(C(=O)NC4CCCC4)cc32)c(C)c1 | u | -7.0%
CCCCC(=O)NCc1nc2cccnc2n1Cc1ccc(OC)cc1 | -23.9% | -2.8%
Cc1ccc(C)c(NC(=O)C2CCN(c3cc(C)nc4c(-c5ccc(Cl)cc5)c(C)nn34)CC2)c1 | 1.5% | -14.7%
CC(=O)c1c(C)oc2ccc(N(C(=O)c3ccncc3)S(=O)(=O)c3ccc(F)cc3C)cc12 | u | u
Cc1cccc(N2C(=O)N(Cc3ccc(C(C)(C)C)cc3)c3ccccc3S2(=O)=O)c1 | -25.8% | -23.7%
Cc1cccc(NC(=O)CSc2nc(-c3cccc(C)c3)nc3c2Cc2c(CO)cnc(C)c2O3)c1 | 2.7% | -11.4%
CCc1ccccc1NC(=O)c1cc(S(=O)(=O)N(CC)c2ccccc2)ccc1F | u | u
CCc1ccc(OCCSc2nc(-c3cccc(C)c3)nc3cc(=O)[nH]n23)cc1 | -8.7% | 0.5%
CC(CNC(=O)Cn1c(-c2cccs2)cc2cc(Cl)ccc21)c1ccccc1 (configuration not stated) | u | -15.4%
CCOc1cc(C2CC(=O)Nc3c2c(C)nn3-c2nc(C)cc(C)n2)ccc1O (configuration not stated) | -37.5% | -9.5%
Cc1ccc(NC(=O)c2nc(S(C)(=O)=O)ncc2N(Cc2ccc(C(C)(C)C)cc2)Cc2ccco2)cc1C | -1.1% | -20.2%
Cc1ccc(-n2ncc(C(=O)NCCN3CCN(C)CC3)c2C2CCN(C(=O)OC(C)(C)C)CC2)c(C)c1 | -0.7% | -10.2%
Cc1ccc(CNC(=O)CCc2c(C)nc3c4c(C)cc(C)nc4nn3c2C)cc1 | -14.2% | 4.4%
Cc1c(Cl)cccc1NC(=O)Nc1ccc2snnc2c1 | u | u
CCC1CN(C(=O)NCc2ccc(F)cc2)c2ccccc2O1 (configuration not stated) | -11.5% | 1.0%
CCc1ccc(NC(=O)C(Cc2ccccc2)NS(=O)(=O)c2ccc3c(c2)c(=O)n(C)c(=O)n3C)cc1 (configuration not stated) | -3.2% | -17.6%
CCOC(=O)c1c(C)[nH]c(C)c1S(=O)(=O)NCC(=O)Nc1ccc(CC)cc1 | 18.0% | -9.6%
COc1cccc(NC(=O)CSc2c3c(nc4ccccc24)CCCC3)c1 | u | 7.0%
O=C(CCC(=O)N1CC2CCCN2c2ccccc21)NCc1ccccc1F (configuration not stated) | -6.3% | -0.6%
CCCCOc1ccc(C(=O)N2CCN(CCc3ccccn3)CC2)cc1 | 16.5% | -14.4%
Cc1cccc(N(C)C(=O)C(Cc2ccccc2)NS(=O)(=O)c2cccc3nsnc23)c1 (configuration not stated) | -10.3% | u
COc1ccccc1N1CCN(S(=O)(=O)c2c(C)sc3ncn(CC(=O)Nc4ccccc4F)c(=O)c23)CC1 | 19.4% | -8.4%
O=C(CSc1nnc(-c2ccc(O)cc2)o1)c1ccc(Br)cc1 | u | -14.0%
Cc1nn(CCCC(=O)NCc2ccccc2)c(=O)c2c1sc1ccccc12 | -14.3% | 0.2%
Cn1ccc2c(OCC(=O)NCc3ccccc3)cccc2c1=O | -1.9% | -20.1%
CN(Cc1ccccc1)c1ccc2cc(S(=O)(=O)N3CCCCC3)ccc2n1 | -11.2% | -17.4%
Cc1cc(C)n(-c2nc3ccccc3nc2Nc2cc(C(=O)O)ccc2C)n1 | -0.3% | -4.8%
O=C(Cc1cccs1)NC1CC(=O)N(c2cccc(F)c2)C1 (configuration not stated) | 13.0% | 5.4%
CN(Cc1ccccc1)c1ccc(-c2nc(-c3ccco3)no2)cc1[N+](=O)[O-] | -0.2% | 20.6%
Cc1nn(-c2nc(-c3ccc(F)cc3)cc(C(F)(F)F)n2)c(C)c1Br | u | -20.1%
CC(C)c1ccc2oc(-c3cc(NC(=O)c4cccs4)ccc3Cl)nc2c1 | u | -18.1%
Cc1c(Cl)cccc1NC(=O)CSc1ncc2c(n1)-c1ccccc1N(C)S2(=O)=O | 16.8µM* | u
Cc1nc(-c2cccc(F)c2)sc1CCNC(=O)C(=O)Nc1ccc2c(c1)OCO2 | u | -15.7%
CCCN(CCC)S(=O)(=O)c1ccc2c(c1)N(CC(=O)NC(C)c1ccccc1)C(=O)CS2 (configuration not stated) | -8.9% | -12.7%
CCOC(=O)c1cc2c(=O)n3ccccc3nc2n(CC2CCCO2)c1=NC(=O)c1ccc(OCC)cc1 (configuration not stated) | u | -4.3%
CCOc1ccc(CCNC(=O)c2cc3c(-c4ccc(OC)c(OC)c4)nn(C)c3s2)cc1OCC | u | u
CC(=O)c1cccc(-n2c(=O)c3c4c(sc3n(CC(=O)c3ccccc3)c2=O)CN(C(C)=O)CC4)c1 | 0.8% | -2.2%
CC(C)NC(=O)c1ccc2c(c1)N(Cc1cccc(Cl)c1)C(=O)c1ccccc1S2=O (configuration not stated) | -24.8% | -13.9%
COc1cccc(-c2cn3c(n2)sc2cc(C(=O)NC4CCCCCC4)ccc23)c1 | u | -10.2%
COc1cc(NC(=O)COCc2cc(-c3ccc(F)cc3)on2)cc(OC)c1OC | u | u
COc1ccc(-c2cc(C(F)(F)F)nc(SCCC(=O)Nc3cccc(O)c3)n2)cc1 | -21.4% | 4.1%
CC(=O)Nc1ccc(Nc2ncnc3sc4c(c23)CCCC4)cc1 | -26.2% | 11.1%
Cc1cccc(-c2noc(-c3ccc(NCc4ccccc4)c([N+](=O)[O-])c3)n2)c1 | 1.4% | 13.0%
Cc1cn2c(=O)cc(COc3ccccc3NC(=O)c3ccco3)nc2s1 | -14.8% | -2.3%
Cc1cc(C)n(-c2nnc(Nc3ccc(C)c(Cl)c3)c3ccccc23)n1 | u | -29.8%
O=C(c1ccc(Cl)cc1)n1nc(-c2ccco2)nc1NCc1cccs1 | -16.1% | 5.7%
CS(=O)(=O)NCC(c1ccco1)N1CCN(c2ccc(F)cc2)CC1 (configuration not stated) | 7.1% | -6.7%

# Going on with the list.
smiles | PMP22 txn | HTT promoter inh
CC(=O)N1CCc2cc(Br)cc(S(=O)(=O)N3CCN(c4cc(C)ccc4C)CC3)c21 | 6.1% | 0.2%
COc1ccc(OC)c(NC(=O)CSc2nc(=O)n(CCN(C)C)c3c2CCC3)c1 | u | -13.4%
CCOC(=O)c1c(NC(=O)COc2cccc(C)c2C)sc2c1CCC(CC)C2 (configuration not stated) | -3.8% | u
CSc1ccccc1-c1nnc(NC(=O)c2ccc3c(c2)OCCO3)o1 | u | 11.1%
Cc1cccc(N2CCN(C(=O)CCc3c(C)nc4ncnn4c3C)CC2)c1C | u | -26.7%
COCCCNc1nc2c(S(=O)(=O)c3ccccc3)nnn2c2ccc(Cl)cc12 | 6.1% | -7.1%
COc1ccc(N2CCN(Cc3nnc(-c4ccc5c(c4)OCO5)o3)CC2)cc1 | u | -9.9%
CC1=Nc2cc(C(=O)NCc3ccccc3Cl)ccc2Sc2c(C)ccc(C)c21 | 10.1µM* | u
CCN(CC)C(=O)c1ccccc1NC(=O)c1cccc(S(=O)(=O)N2CCC(C)CC2)c1 | -4.1% | -22.6%
CCc1ccc(NC(=O)CCCc2nnc3n(CCCOC)c(=O)c4sccc4n23)cc1 | u | -4.8%
CC(C)NC(=O)Cc1csc2nc(-c3ccccc3)cn12 | 32.4% | -18.8%
Cc1cn2c(=O)cc(COc3ccc(C(C)(C)C)cc3)nc2s1 | -61.4% | -12.8%
Cc1cccc(Cn2c(-c3ccccc3)nc3ccccc32)c1 | -0.2% | 1.9%
Cc1ccc(Cn2c(CNC(=O)CCc3ccccc3)nc3cccnc32)cc1 | 2.3% | -3.8%
CCCNC(=O)CCc1nnc2ccc(N3CCN(c4cccc(OC)c4)CC3)nn12 | 10.6% | 6.9%
Cc1cccc(Cn2c(C)c(C)c3cc(C(=O)NCc4ccco4)ccc32)c1 | u | -26.9%
COc1ccc(NC(=O)c2ccco2)cc1NC(=O)COc1ccc(C)cc1C | u | u
Cc1ccc(Cn2c(=O)c3cccnc3n(CC(=O)Nc3cc(Cl)ccc3C)c2=O)cc1 | -0.8% | -9.7%
O=C(Cn1c(=O)n(Cc2ccco2)c(=O)c2cccnc21)Nc1ccccc1F | -4.3% | -10.3%
CC(C)c1ccc(N2C(=O)N(Cc3cccc([N+](=O)[O-])c3)c3ccccc3S2(=O)=O)cc1 | -10.6% | u
CCOC(=O)c1ccccc1NC(=O)c1nn(C)c2c1COc1ccccc1-2 | 16.8µM* | -16.7%
CCOc1ccc(C2c3c(oc4ccc(C)cc4c3=O)C(=O)N2c2nc(C)c(C)s2)cc1OC (configuration not stated) | -8.3% | 9.7%
COC(=O)c1ccccc1NC(=O)C1=CC(c2ccc3c(c2)OCO3)=NS(=O)(=O)N1C | -31.6% | -5.8%
Cc1cc(C)cc(NC(=O)CSc2nnc(COc3ccccc3Cl)o2)c1 | -4.3% | -8.4%

# 3 structures from above, arranged by molar mass, ascending:
smiles | PMP22 txn | HTT promoter inh
O=C(Cn1c(=O)n(Cc2ccco2)c(=O)c2cccnc21)Nc1ccccc1F | -4.3% | -10.3%
Cc1cc(C)cc(NC(=O)CSc2nnc(COc3ccccc3Cl)o2)c1 | -4.3% | -8.4%
CC(C)c1ccc(N2C(=O)N(Cc3cccc([N+](=O)[O-])c3)c3ccccc3S2(=O)=O)cc1 | -10.6% | u

# (listing goes on)
smiles | PMP22 txn | HTT promoter inh
COC(=O)C(C)Sc1ncnc2c1c(-c1ccccc1)cn2-c1ccc(F)cc1 (configuration not stated) | -29.2% | u
COc1ccc(OCCn2c(C3CC(=O)N(c4ccc(F)cc4)C3)nc3ccccc32)cc1 (configuration not stated) | u | u
COc1ccc(Cl)cc1NC(=O)c1cc2c(s1)-c1ccccc1OC2 | u | 4.9%
Cc1ccc(C(=O)Nc2nnc(S(=O)(=O)N3CCc4ccccc43)s2)cc1 | 19.9% | -15.5%
CCOc1ccc(Nc2ncnc3scc(-c4ccc(OC)cc4)c23)cc1 | u | u
COc1cc(NS(=O)(=O)c2ccc3[nH]c4c(c3c2)CCCCCC4)cc(OC)c1 | u | u
Cn1c(=O)c2c(nc(N3CCOCC3)n2Cc2ccccc2F)n(C)c1=O | -15.0% | -5.6%
CCOC(=O)c1cccc(NS(=O)(=O)c2cc(-c3cnc(C)o3)ccc2OC)c1 | u | -42.3%
COc1ccc(OC)c(C2C(C(=O)N3CCCCC3)=C(C)Nc3nc4ccccc4n32)c1 (configuration not stated) | 0.0% | -6.1%
CCOC(=O)[C@@](C)(N)Cc1ccc(O)c(O)c1 | x | u
Cn1c(=O)c2c(nc(SCC(=O)Nc3ccccc3F)n2Cc2ccccc2F)n(C)c1=O | -6.6% | 8.5%
Cc1nc2ccc(S(=O)(=O)NC(C(=O)N3CCN(c4cccc(Cl)c4)CC3)C(C)C)cc2s1 (configuration not stated) | -13.2% | -11.5%
CC(=O)c1cc(-c2ccccc2)n(CC(=O)NC2CCCCC2)c1C | -10.9% | -4.0%
Cc1cc(C)n(-c2nc3ccccc3nc2Nc2cccc(C)c2C)n1 | u | -4.0%
CCN(CC)c1nn2c(=O)c(C(=O)NCc3ccc(F)cc3)cnc2s1 | -24.4% | 6.0%
CN1CCN(C(=O)c2ccc3c(c2)N(Cc2ccc(F)cc2)C(=O)c2ccccc2S3=O)CC1 (configuration not stated) | u | -11.0%
Fc1ccc(Nc2nc(SCc3ccc(Cl)cc3)nc3ccccc23)cc1 | u | -26.3%
CC1(C)C(=O)N(CC(=O)Nc2ccc(Br)cc2F)c2ccccc21 | -2.1% | -34.0%
COc1ccc2c(CNCCc3ccco3)c(C(=O)O)n(Cc3ccc(C)cc3)c2c1 | 10.0% | -16.9%
Cc1ccc(CCNC(=O)c2c[nH]c3ccc(S(=O)(=O)Nc4cccc(C(F)(F)F)c4)cc3c2=O)cc1 | u | 15.8µM*
O=C(Nc1cccc(Cl)c1)c1c(NC(=O)C(F)(F)F)sc2c1CCCC2 | 12.6µM* | 1.78µM*
